FGF22 binding = binders of human FGF22 protein, primary screen, FGF22 synaptogenesis inhibitor project, biophysical, thermal shift, single point | recombinant FGF22 thermal shift, SYPRO orange fluorescence; percent of sucrose octasulfate shift, DMSO zero | calls only at 9.99 µM | 340,000 tested, 1.5% active;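 active means melting point raised past a set limit in the mean and every replicate; three in four hits are not shown here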
Target sequence (Q9HCT0 whole entry, looked up): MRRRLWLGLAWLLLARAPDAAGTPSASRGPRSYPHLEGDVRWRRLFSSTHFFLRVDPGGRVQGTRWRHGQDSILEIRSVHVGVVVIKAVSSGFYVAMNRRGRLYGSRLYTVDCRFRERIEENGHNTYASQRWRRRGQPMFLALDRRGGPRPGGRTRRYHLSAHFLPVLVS
rRNA inh HTS = reduced GFP signal of wild-type E. coli, primary screen, bacterial rRNA inhibitor project, GFP/RFP fluorescence, OD600, single point. E. coli WT GFP vs humanized-ribosome RFP mutants, 24 h; stronger effect = lower value; DMSO median 0, no signal -100. GFP signal change (wild-type ribosome), % (no concentration beside the values). AID 720706, 2013. 350,000 tested, 1.6% active;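 active means significant combined selectivity score with lowered wild-type GFP, culture density cut under 30%, mutant RFP and density less affected; inactive means any of these conditions unmet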; further: one replicate is shown; some compounds called inactive have numbers as strong as hits
rRNA inh HTS OD600 = further read-out of rRNA inh HTS, marked with its call; OD600 change, %; measured here: OD600 growth;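 optical density of the mix in the first replicate; 0 = DMSO median and -100 = no signal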
rRNA inh HTS RFP = further read-out of rRNA inh HTS, marked with its call; RFP signal change, %; measured here: RFP humanized mutant strains;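 first replicate; 0 = DMSO median and -100 = no signal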
Starred values were filed as active, the others as inactive; i = inactive; & = joins results of further samples. An excerpt. The share of hits here may be higher or lower than overall.

Every second line gives: FGF22 binding	rRNA inh HTS	rRNA inh HTS OD600	rRNA inh HTS RFP
- COCC(=O)Nc1ccc2c(c1)[C@@H]1C[C@@H](CC(=O)NCc3cccc(F)c3)O[C@H](CO)[C@@H]1O2
    i	3.2	5.1	1.2
- CC(=O)N(C)C[C@@H]1Oc2cc(C#Cc3ccccc3F)ccc2S(=O)(=O)N([C@@H](C)CO)C[C@H]1C
    i	-12.9	-32.1	-5.0
- CNC[C@@H]1OCCCC[C@H](C)Oc2ccc(NS(=O)(=O)c3c(C)noc3C)cc2C(=O)N([C@@H](C)CO)C[C@H]1C
    i	6.2	1.8	1.2
- C[C@@H]1CN([C@H](C)CO)C(=O)Cc2cc(NC(=O)Cc3ccccc3)ccc2O[C@H]1CN(C)S(=O)(=O)c1cn(C)cn1
    i	2.9	4.2	-2.4
- COc1ccc(NC(=O)N(C)C[C@@H]2OCCCC[C@H](C)Oc3ccc(NC(=O)Cc4ccccc4)cc3C(=O)N([C@@H](C)CO)C[C@@H]2C)cc1
    i	-3.4	6.9	1.7
- Cc1noc(C)c1S(=O)(=O)N(C)C[C@@H]1Oc2ccc(NS(C)(=O)=O)cc2CC(=O)N([C@H](C)CO)C[C@@H]1C
    i	0.5	-6.2	-4.4
- CN(C)C(=O)C[C@H]1C[C@H]2c3cc(NC(=O)CC4CC4)ccc3O[C@H]2[C@@H](CO)O1
    i	-3.0	4.2	-0.2
- CC=Cc1ccc2n(c1=O)C[C@@H]1[C@@H](CO)[C@H](C(=O)NCc3ccc(F)cc3)N(C)[C@H]21 (mixture of isomers)
    i	6.1	4.7	0.6
- Cc1ccc(S(=O)(=O)N(C)C[C@H]2Oc3c(NC(=O)CCCCCC(=O)Nc4ccccc4N)cccc3C(=O)N([C@@H](C)CO)C[C@@H]2C)cc1
    i	-5.6	-5.1	-0.2
- CO[C@H]1CC[C@@H]2CCOc3c(C#N)cccc3C(=O)N(C)[C@H](C)C(=O)N(C)C[C@@H]1O2
    i	2.2	3.7	-3.6

4 entries from above in a different format:
FGF22 binding,rRNA inh HTS,rRNA inh HTS OD600,rRNA inh HTS RFP,Molecule
i,-3.0,4.2,-0.2,CN(C)C(=O)C[C@H]1C[C@H]2c3cc(NC(=O)CC4CC4)ccc3O[C@H]2[C@@H](CO)O1
i,6.1,4.7,0.6,CC=Cc1ccc2n(c1=O)C[C@@H]1[C@@H](CO)[C@H](C(=O)NCc3ccc(F)cc3)N(C)[C@H]21 (mixture of isomers)
i,3.2,5.1,1.2,COCC(=O)Nc1ccc2c(c1)[C@@H]1C[C@@H](CC(=O)NCc3cccc(F)c3)O[C@H](CO)[C@@H]1O2
i,0.5,-6.2,-4.4,Cc1noc(C)c1S(=O)(=O)N(C)C[C@@H]1Oc2ccc(NS(C)(=O)=O)cc2CC(=O)N([C@H](C)CO)C[C@@H]1C

Other entries follow:
Every second line gives: FGF22 binding	rRNA inh HTS	rRNA inh HTS OD600	rRNA inh HTS RFP
- O=C(C1CCCC1)N1C[C@@H]2[C@H](c3ccccc31)[C@@H](CO)N2C(=O)c1ccccc1
    i	1.6	-1.8	1.1
- CCCC#Cc1ccc2c(c1)O[C@@H](CN(C)C(=O)c1cccnc1)[C@H](C)CN([C@H](C)CO)S2(=O)=O
    i	-0.2	-4.5	-4.3
- COc1ccc(-c2ccc([C@H]3[C@H]4CN(C(=O)c5ccc(F)cc5)CCCCN4[C@H]3CO)cc2)cc1
    i	-13.3	-53.6	19.4
- COc1ccc2c3c(n(C)c2c1)[C@@H](CO)N(Cc1cccnc1)CC31CCN(C(=O)c2cccnc2)CC1
    i	7.0	7.3	-0.1
- COCC(=O)Nc1ccc2c(c1)C(=O)N(C)C[C@H](OC)[C@H](C)CN(C(=O)c1ccccn1)[C@@H](C)CO2
    i	4.6	6.6	0.0
- C[C@@H]1CN([C@@H](C)CO)C(=O)c2cccc(NC(=O)NC3CCCCC3)c2O[C@@H]1CN(C)C(=O)NC1CCCCC1
    i	-3.8	0.9	0.6
- COc1ccc(CN(C)C[C@H]2OCCCC[C@H](C)Oc3ccc(NC(=O)Nc4ccc5c(c4)OCO5)cc3C(=O)N([C@H](C)CO)C[C@H]2C)cc1
    i	0.8	15.8	-1.8
- OC[C@H]1[C@H](c2ccc(-c3cccc(F)c3)cc2)[C@H]2CN(Cc3cncnc3)CCCCN21
    i	1.7	3.0	1.9
- CN1C(=O)c2cc(NC(=O)c3cscn3)ccc2OC[C@H]2O[C@H](CC(=O)NCC3CC3)CC[C@@H]21
    i	2.9	6.6	-4.6
- C[C@H](CO)N1C[C@H](C)[C@H](CN(C)Cc2ccccc2)OCCCC[C@H](C)Oc2ccc(NC(=O)c3ccncc3)cc2C1=O
    i	1.5	-2.5	1.2
- C[C@@H]1CN([C@@H](C)CO)C(=O)c2cc(N(C)C)ccc2O[C@H]1CN(C)S(=O)(=O)c1cccs1
    i	-6.7	-9.1	-0.3
- Cc1ccc(S(=O)(=O)N(C)C[C@H]2Oc3ccc(NC(=O)CCCN(C)C)cc3C(=O)N([C@H](C)CO)C[C@@H]2C)cc1
    i	-2.9	-3.9	-0.7
- CN1CCN(C(=O)C[C@H]2CC[C@H]3[C@@H](COC[C@H](O)CN3Cc3cccc(-c4ccncc4)c3)O2)CC1
    i	-0.6	-5.5	0.1
- O=C(C[C@@H]1CC[C@@H](NC(=O)Nc2ccc3c(c2)OCO3)[C@H](CO)O1)NCc1ccc(F)cc1
    i	3.5	-0.9	1.4
- COc1ccc(NC(=O)Nc2ccc3c(c2)C(=O)N([C@@H](C)CO)C[C@@H](C)[C@@H](CN(C)C(=O)CCCN(C)C)OCCCC[C@@H](C)O3)cc1
    i	0.4	13.0	1.3
- CCC(=O)N1CC2(C1)[C@H](c1ccc(-c3ccccc3OC)cc1)[C@@H](CO)N2C(C)=O
    i	0.3	-6.8	0.3
- COc1ccc(S(=O)(=O)N(C)C[C@@H]2OCCCC[C@@H](C)Oc3ccc(NC(=O)Nc4ccc5c(c4)OCO5)cc3C(=O)N([C@@H](C)CO)C[C@@H]2C)cc1
    i	-0.5	2.8	-0.2
- C[C@@H]1CCCCO[C@@H](CN(C)Cc2ccc3c(c2)OCO3)[C@H](C)CN([C@H](C)CO)C(=O)c2cc(NC(=O)CCC(F)(F)F)ccc2O1
    i	1.8	1.5	-0.3
- COc1ccc2c3c([nH]c2c1)[C@H](CO)N(C(=O)NC1CCCC1)CC31CN(C(=O)Nc2cccc(F)c2)C1
    i	-6.8	-6.9	-1.0
- C[C@H]1CN([C@@H](C)CO)C(=O)c2cc(C#Cc3ccccc3)cnc2O[C@H]1CN(C)C(=O)CN(C)C
    i	3.6	5.6	0.3
- O=C(C[C@@H]1C=C[C@H](NC(=O)c2ccccc2)[C@@H](CO)O1)NCCc1ccncc1
    i	3.0	8.9	-6.0
- COc1ccc(NC(=O)N[C@H]2CC[C@H](CCn3cc(C4(O)CCCC4)nn3)O[C@@H]2CO)cc1
    i	0.5	1.7	1.1
- C[C@@H]1CN([C@@H](C)CO)C(=O)c2cccc(NS(=O)(=O)c3cccs3)c2O[C@H]1CN(C)Cc1ccccc1
    i	-0.5	0.1	1.1
- CC=Cc1ccc2n(c1=O)C[C@H]1[C@H](CO)[C@@H](C(=O)NCCc3cn(C)cn3)[C@@H]2N1C(=O)CC (mixture of isomers)
    i	2.6	7.7	0.3
- Cc1noc(C)c1S(=O)(=O)Nc1ccc2c(c1)CC(=O)N([C@@H](C)CO)C[C@@H](C)[C@@H](CN(C)C(=O)Nc1cccc3ccccc13)O2
    i	-6.5	1.6	1.4
- CCC(=O)N1C[C@H]2[C@@H](c3ccccc31)[C@@H](CO)N2C(=O)Nc1ccccc1
    i	0.1	-9.2	-1.5
- COc1ccccc1CN1C[C@@H]2N[C@H](C1)C2c1ccc(-c2ccncc2)cc1 (stereo partly drawn)
    i	5.4&5.0	0.5&12.5	7.8&-1.4
- C[C@@H]1CN([C@H](C)CO)S(=O)(=O)c2ccc(C#Cc3ccc(F)cc3)cc2O[C@@H]1CN(C)C(=O)NC1CCCC1
    i	-2.1	-3.9	2.9
- CO[C@H]1CN(C)C(=O)c2cc(NC(=O)Nc3c(C)noc3C)ccc2OC[C@@H](C)N(C)C[C@H]1C
    i	1.9	4.6	-0.9
- CCCC(=O)Nc1ccc2c(c1)C(=O)N(C)[C@@H]1CC[C@@H](CC(=O)Nc3ccccc3)O[C@@H]1CO2
    i	2.7	-2.1	2.4
- COc1ccc2c3c(n(C)c2c1)[C@@H](CO)N(C(=O)c1ccncc1)CC31CN(CC2CC2)C1
    i	2.3	11.8	-2.3
- CN(C)C(=O)c1ccc(-c2ccc(C3[C@H]4CNC[C@@H]3N4S(=O)(=O)c3ccccc3)cc2)cc1 (stereo partly drawn)
    i	2.6	4.1	-3.4
- O=C(NC[C@@H]1N[C@@H](CO)[C@H]1c1ccc(C2=CCCCC2)cc1)c1cccc(F)c1
    i	-60.8	-79.4	-17.2
- C[C@@H]1CN([C@@H](C)CO)C(=O)c2cc(/C=C/c3ccccc3)cnc2O[C@H]1CN(C)C(=O)c1cccnc1
    i	-5.1	-6.3	-1.4
- COc1cccc(NC(=O)N[C@@H]2CC[C@@H](CC(=O)NCc3ccncn3)O[C@@H]2CO)c1
    i	1.0	7.9	1.9
- CNC[C@@H]1Oc2cc(C#Cc3cccc(OC)c3)ccc2S(=O)(=O)N([C@@H](C)CO)C[C@@H]1C
    i	1.4	5.8	8.4
- C[C@@H]1CN([C@H](C)CO)C(=O)c2cc(NC(=O)c3ccncc3)ccc2O[C@@H]1CN(C)Cc1ccc(Cl)c(Cl)c1
    i	-7.2	-14.9	1.6
- Cc1noc(C)c1S(=O)(=O)N(C)C[C@@H]1OCCCC[C@H](C)Oc2ccc(NC(=O)C3CCCCC3)cc2C(=O)N([C@@H](C)CO)C[C@H]1C
    i	-2.6	-3.8	0.1
- COc1ccc(NC(=O)N(C)C[C@H]2Oc3ccc(NC(=O)C4CC4)cc3CC(=O)N([C@H](C)CO)C[C@@H]2C)cc1
    i	1.0	3.3	-1.0
- Cc1ccc(S(=O)(=O)Nc2ccc3c(c2)C(=O)N([C@H](C)CO)C[C@H](C)[C@@H](CN(C)C(=O)NC2CCCCC2)O3)cc1
    i	3.8	11.1	-4.9

Next section
molecule	FGF22 binding	rRNA inh HTS	rRNA inh HTS OD600	rRNA inh HTS RFP
CN1CCN(C(=O)C[C@H]2CC[C@@H]3[C@H](COC[C@@H](O)CN3Cc3ccc4c(c3)OCO4)O2)CC1	i	-2.7	2.0	2.3
O=C(Cc1ccccc1)N[C@@H]1CC[C@@H](CC(=O)N2CCOCC2)O[C@H]1CO	i	-0.1	0.8	-0.6
Cc1ccc(S(=O)(=O)Nc2ccc3c(c2)CC(=O)N([C@H](C)CO)C[C@@H](C)[C@H](CN(C)Cc2ccncc2)O3)cc1	i	-2.4	-8.0	-1.1
CN1C(=O)c2cc(NS(C)(=O)=O)ccc2OC[C@@H]2O[C@H](CC(=O)NCc3ccccc3)CC[C@H]21	i	3.1	6.9	-0.6
C[C@@H]1CN([C@H](C)CO)C(=O)c2cc(N(C)C)ccc2O[C@H]1CN(C)Cc1ccc(C(=O)O)cc1	i	8.7	8.7	-1.2
Cc1noc(C)c1S(=O)(=O)Nc1ccc2c(c1)C(=O)N([C@H](C)CO)C[C@@H](C)[C@H](CN(C)S(=O)(=O)c1ccc(Cl)cc1)OCCCC[C@@H](C)O2	i	0.7	-2.0	-0.4
COCC(=O)Nc1ccc2c(c1)C(=O)N(C)[C@@H]1CC[C@H](CC(=O)NC3CCCC3)O[C@@H]1CO2	i	-1.4	-3.0	-1.9
CN(C)C(=O)[C@@H]1[C@@H](CO)[C@@H]2Cn3c(ccc(C4=CCCC4)c3=O)[C@H]1N2CC1CCOCC1	i	-1.4	5.0	0.1
CO[C@@H]1CN(C)C(=O)c2cc(NC(=O)C3CCOCC3)ccc2OC[C@H](C)N(C(C)=O)C[C@H]1C	i	0.4	0.1	-2.7
Cc1noc(C)c1NC(=O)N(C)C[C@@H]1Oc2cc(C#CCC3CCCC3)ccc2S(=O)(=O)N([C@H](C)CO)C[C@@H]1C	i	-5.1	-15.1	9.2
CO[C@H]1CN(C)C(=O)c2ccc(NC(=O)C3CCC3)cc2OC[C@@H](C)N(CC2CCCCC2)C[C@@H]1C	i	3.8	-15.2	7.7
COc1ccc(NC(=O)Nc2ccc3c(c2)[C@H]2C[C@@H](CC(=O)O)O[C@@H](CO)[C@H]2O3)cc1	i	5.9	5.6	-0.9
CC(C)C[C@@H]1COc2cc(N3CCOCC3)ccc2S(=O)(=O)N1	i	-3.4	-1.9	5.7
Cc1ccc(S(=O)(=O)N(C)C[C@H]2OCCCC[C@H](C)Oc3ccc(NC(=O)Nc4cccc5ccccc45)cc3C(=O)N([C@@H](C)CO)C[C@@H]2C)cc1	i	-4.0	4.6	-5.0
COc1ccccc1NC(=O)Nc1ccc2c(c1)C(=O)N(C)C[C@H](OC)[C@H](C)CN[C@@H](C)CO2	i	-0.2	-0.3	2.8
C[C@@H]1CN([C@H](C)CO)C(=O)Cc2cc(NC(=O)Cn3cnnn3)ccc2O[C@@H]1CN(C)CC1CC1	i	0.6	0.0	-0.6
C[C@@H]1CN([C@H](C)CO)C(=O)c2cc(NC(=O)C3CCCCC3)ccc2O[C@H]1CN(C)Cc1ccc(-c2ccccc2)cc1	i	-2.3	0.5	0.6
